Screens as filed in PubChem.
eIF4H inh: inhibitors of RNA binding by human eIF4H. Q15056. 290,000 tested, 0.94% active. AID 2012. inhibition, % at 35 µM. eIF4H fluorescence polarization binding assay;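 active = 50% or more with normal probe brightness, or confirmed in later tests; inconclusive = above 50% with abnormal brightness, or retests that disagree; inactive = below 50% or failed in later tests; about a fifth of its hits are not listed in these tables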;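 note: calls also rest on retests at 20 µM and on dose response follow-up; 0% = protein and probe with vehicle and 100% = probe without protein; strong numbers were not always called active; many hits fall short of the cut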
MT1-MMP act inh: MT1-MMP (human) activation inhibition; HT1080 RFP-PRO-GFP cells, GFP/RFP ratio fluorescence, overnight; percent of plate control window, DMSO zero; P50281; 360,000 tested, 0.061% active; GFP/RFP ratio change, % at 20 µM; AID 651647;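 active = GFP/RFP ratio change of at least 30% with cell ATP level not reduced by more than half and red fluorescence within 50% of control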; note: strong numbers were not always called active
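Assay system: RFP-PRO-GFP reporter HT1080 cells; read-out basis: GFP/RFP fluorescence ratio; benchmarks: DMSO wells and RFP-L50D-GFP cells; doses: 20 µM single dose, 1% DMSO; schedule: overnight cell settling, then overnight compound exposure, 37 °C, 5% CO2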
CSC inhib: blocks cancer stem cells; AID 2717; 300,000 tested, 1.1% active; cancer stem cell-like cells viability, luminescence; inhibition, % at 7.5 µM;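 active = mean at 75% or more and at least half the replicates too; inconclusive = mean and replicates disagree; tested in HMLE shEcad cells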;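 note: 0% = median of negative and 100% = median of positive control wells; the first replicate is given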
Rce1 inhib: inhibitors of yeast Ras-converting enzyme; Q03530; calls only; AID 2563; 290,000 tested, 0.27% active; yeast membranes, quenched prenylated peptide cleavage fluorescence;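 active = fall in fluorescence gain of 50% or more versus controls, with final raw signal at or below 3038400; inconclusive = same 50% fall but final raw signal above 3038400; inactive = fall in fluorescence gain under 50%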;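 note: plate controls were neutral control wells for no effect and wells lacking membranes for full effect; tested at 10 µM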
Env fusion inh: HIV envelope-mediated fusion inhibition. HeLa-JRFL Env/CEM21 cell fusion, luciferase. inhibition, % at 12.3 µM. AID 651610. 360,000 tested, 1.1% active;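 active = mean replicate inhibition score of at least 50 and every replicate individually at or above 50; inconclusive = only one of the two criteria met; inactive = mean below 50 and not all replicates reaching 50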;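 note: 0% = plate neutral controls and 100% = maraviroc near 300 nM; one replicate is shown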
Yeast UUG start: alters start codon recognition fidelity in yeast. S. cerevisiae UUG-firefly luciferase reporter, luminescence/redox ratio. activity score, % at 18.7 µM. 350,000 tested, 0.13% active. AID 602363;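 active = replicate mean at a twofold rise or more, about +100% in these data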;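 note: firefly luciferase made from a UUG start codon reports start codon fidelity; reporter light over untreated wells divided by growth signal over untreated wells; some hits fall short of that in this replicate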
PABP polyA inh: blocks human PABP binding to poly(A) RNA; P11940; fluorescence polarization; inhibition, % at 35 µM; 290,000 tested, 1% active; AID 2014;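 active = 50% or more with normal probe brightness, or confirmed in later tests; inconclusive = above 50% with abnormal brightness, or retests that disagree; inactive = below 50% or failed in later tests; about a fifth of its hits are not listed in these tables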;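 note: calls also rest on retests at 20 µM and on dose response follow-up; controls were probe without protein and protein plus probe with vehicle; some compounds called inactive have numbers as strong as hits; many hits fall short of the cut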
Target sequence (P11940 whole entry, looked up): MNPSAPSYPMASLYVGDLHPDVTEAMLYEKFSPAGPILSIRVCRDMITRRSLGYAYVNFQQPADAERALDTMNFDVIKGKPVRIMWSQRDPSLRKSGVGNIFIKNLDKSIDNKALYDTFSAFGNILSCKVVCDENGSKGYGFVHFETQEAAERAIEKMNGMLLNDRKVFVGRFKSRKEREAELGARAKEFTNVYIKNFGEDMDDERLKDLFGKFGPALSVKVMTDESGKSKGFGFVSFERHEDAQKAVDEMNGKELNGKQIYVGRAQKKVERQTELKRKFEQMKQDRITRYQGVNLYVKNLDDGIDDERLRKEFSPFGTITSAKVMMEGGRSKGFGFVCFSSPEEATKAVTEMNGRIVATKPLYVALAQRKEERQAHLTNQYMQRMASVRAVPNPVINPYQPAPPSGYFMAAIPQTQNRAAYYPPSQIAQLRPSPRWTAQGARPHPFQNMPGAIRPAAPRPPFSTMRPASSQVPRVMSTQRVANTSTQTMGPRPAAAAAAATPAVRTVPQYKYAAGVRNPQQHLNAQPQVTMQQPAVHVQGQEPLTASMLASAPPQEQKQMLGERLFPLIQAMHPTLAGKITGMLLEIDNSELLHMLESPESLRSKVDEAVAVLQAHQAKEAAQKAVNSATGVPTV
MT1-MMP act inh RFP: further read-out of MT1-MMP act inh, marked with its call; RFP signal change, %; measured here: RFP expression control read;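 0 = vehicle wells; hits needed this value within 50% of zero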
* marks the source's active call; other numbers are inactive results; i = inactive; ? = inconclusive; . = not tested or not shown; & = joins results of further samples.

SMILES | eIF4H inh | MT1-MMP act inh | MT1-MMP act inh RFP | CSC inhib | Rce1 inhib | Env fusion inh | Yeast UUG start | PABP polyA inh
Cc1cccc(/C=C2\Sc3ccc(C(=O)N4CCCCC4)cc3N(C)C2=O)c1 | -14 | -4 | -20 | 48 | i | 18 | -15 | -8
CC1(C)NC(=O)N(CCCSc2ccc(Cl)cc2)C1=O | -2 | -1 | -3 | 11 | i | 15 | 0 | 6
Cc1cc(Br)c(NC(=O)C(C)Sc2nnnn2C)c(Br)c1 (stereo not given) | . | 2 | 1 | -5 | . | -1 | -6 | .
CN1CCc2cc3c(c4c2C1CC41CCC(=NO)CC1)OCO3 (stereo not given) | 27 | -4 | 0 | 6 | i | . | -17 | 19
COc1cc(Cl)c(C)cc1NC(=O)CSc1nnc(CCC(=O)O)c(=O)[nH]1 | 3 | 2 | 1 | -4 | i | 1 | 3 | 0
COC(=O)c1cc(Cl)c(NC(=O)c2cc(OC)c(OC)c(OC)c2)cc1OC | -8 | 2 | 3 | . | i | -28 | -14 | 2
O=C(CP(=O)(c1ccccc1)c1ccccc1)Nn1cnnc1 | -13 | 3 | 4 | -6 | i | . | -10 | -3
COc1ccnc(N2CCN(c3cccc(C(F)(F)F)c3)CC2)c1C#N | -6 | 5 | -1 | -12 | i | -22 | -16 | -2
CN1C(=S)SC(C)(C)C1NO (stereo not given) | 3 | -2 | 3 | -5 | i | -8 | -9 | 2
CCOc1ccc(N(C(C)C(=O)NN=C2CCCCCCC2)S(C)(=O)=O)cc1 (stereo not given) | 2 | 1 | 3 | 2 | i | 1 | . | -10
CCN(CC)c1ccc(S(=O)(=O)N2CCOCC2)cc1NC(=O)CN1CCN(Cc2ccccc2)CC1 | 6 | -2 | -3 | -2 | i | 18 | -1 | 19
O=S1(=O)CC(N2CCC(c3ccccc3)CC2)CN1Cc1ccccc1 (stereo not given) | . | 9 | 7 | . | . | 0 | -4 | .
COc1ccc(-n2nnnc2CNC(=O)c2c(-c3ccccc3Cl)noc2C)cc1 | . | 4 | 1 | . | . | -2 | -17 | .
COc1ccc(CC(C)NCC(O)c2ccc(O)c(NC=O)c2)cc1 (stereo not given) | . | 2&5 | 6&6 | . | . | -34 | -10&-16 | .
COCCn1c(SCC(=O)NNC(=O)c2ccccc2)nc2ccccc2c1=O | -15 | -6 | 0 | -6 | i | 17 | -9 | 0
CC(CCc1ccccc1)NC(=O)CNC(=O)N1CC(=O)Nc2ccccc21 (stereo not given) | -2 | 2 | -1 | -1 | i | 2 | -14 | 10
N#C/C(=C\c1ccc(F)c(F)c1)C(=O)NC1CCCCC1 | -7 | -6 | -2 | -1 | i | -7 | -10 | -15
O=C(COC(=O)c1ccco1)Nc1nc2ccc([N+](=O)[O-])cc2s1 | -2 | -7 | -2 | 14 | i | 18 | -15 | 6
Cc1ccccc1CN1C(=O)c2ccccc2Sc2ccc(C(=O)NCCCN3CCOCC3)cc21 | -7 | -6 | -2 | 14 | i | -5 | -13 | -1
Cc1ccc(S(=O)(=O)c2nc(-c3ccco3)oc2SCC(N)=O)cc1 | -7 | -5 | 1 | -2 | i | -4 | 74 | 6
COc1ccc(CCNC(=O)c2cc(S(=O)(=O)N3CCOCC3)cn2C)cc1OC | -9 | 5 | 2 | -5 | i | -11 | -9 | 12
CCCCN1C(=O)/C(=C(/C#N)C(=O)N2CCCC2)c2ccccc21 | 46 | -3 | -2 | 8 | i | 5 | . | 27
Cc1nc(C)c(C(=O)N/N=C/c2ccco2)s1 | 0 | -3 | -1 | 3 | i | -7 | -5 | 0
Cc1ccc(C2N(c3nccs3)C(=O)C3CCCN32)cc1 (stereo not given) | -5 | 0 | 0 | . | i | 4 | -9 | 2
COc1ccc(CC(=O)Nc2nc(C)cs2)cc1 | 1 | 5 | 3 | -12 | i | -9 | 1 | -3
C/C(=N\N1CCN(c2ccccc2)CC1)c1ccco1 | 10 | 4 | 5 | -6 | i | 9 | . | 2
Cc1ccc(NC(=O)C[n+]2cc(-c3ccccc3)n3c2CCC3)c(C)c1 | -4 | 0 | -3 | 9 | i | -14 | . | 1
Cc1ccc(Cc2c(C)[nH]c(=S)[nH]c2=O)cc1 | -5 | 2 | 3 | -14 | i | -8 | . | -4
Cc1cccc(NC(=S)NN2CCN(C)CC2)c1 | -4 | 7 | 8 | -1 | i | . | -21 | 6
N#Cc1c(NC(=O)CSc2ncnc3sccc23)oc(-c2ccco2)c1-c1ccco1 | ? | -54 | 7 | -5 | i | . | 3 | ?

Not a retest: an excerpt of the list.
SMILES | eIF4H inh | MT1-MMP act inh | MT1-MMP act inh RFP | CSC inhib | Rce1 inhib | Env fusion inh | Yeast UUG start | PABP polyA inh
Cc1ccccc1CN1C(=O)c2ccccc2Sc2ccc(C(=O)NCCCN3CCOCC3)cc21 | -7 | -6 | -2 | 14 | i | -5 | -13 | -1
Cc1ccc(S(=O)(=O)c2nc(-c3ccco3)oc2SCC(N)=O)cc1 | -7 | -5 | 1 | -2 | i | -4 | 74 | 6

Additional structures:
SMILES | eIF4H inh | MT1-MMP act inh | MT1-MMP act inh RFP | CSC inhib | Rce1 inhib | Env fusion inh | Yeast UUG start | PABP polyA inh
N[C@@H](CO)c1nnc([C@H](CCC(=O)O)NC(=O)C2CCNCC2)o1 | -9 | -3 | 3 | -6 | i | 8 | -11 | -6
O=S(=O)(c1cccs1)N1CN(C2CCCC2)c2nc3ccccc3nc21 | -2 | . | . | -7 | i | 8 | . | 2
COC(=O)C1Cc2c([nH]c3ccccc23)C(C)N1 (stereo not given) | -9 | -4 | 4 | -7 | i | -11 | . | 3
Cc1ccc(CN2CCSc3ccc(C(=O)N4CCN(c5ncccn5)CC4)cc32)cc1 | -8 | -4 | -10 | 2 | i | . | -3 | -1
Cc1ccc(CN2CC(C(=O)Nc3ccc(F)c([N+](=O)[O-])c3)CC2=O)cc1 (stereo not given) | 3 | 1 | 0 | 8 | i | 11 | . | 2
CS(=O)(=O)N(Cc1ccccc1)c1ccc(C(=O)NN=C2CCCCCC2)cc1 | -10 | -4 | 2 | 7 | i | -10 | 4 | 5
S=C(N/N=C1\C2CN3CCN(C2)CC1(c1ccccc1)C3)Nc1ccccc1 | -3 | -5 | -1 | 0 | i | 0 | -8 | 5
COc1ccc(-n2ccnc2SCC(=O)Nc2ccc(OC)cc2OC)cc1 | -2 | 0 | -5 | -14 | i | . | -6 | -9
NS(=O)(=O)c1ccc(-c2ccc(/C=N/NC(=O)c3ccc([N+](=O)[O-])cc3)o2)cc1 | 10 | -3 | -4 | -5 | i | -35 | -13 | -2
NNC(=O)c1cc(C2CC2)nc2ccc(Br)cc12 | 2 | 3 | 6 | 9 | i | 10 | -19 | -5
COc1ccc(CCN2C(=O)CC(C(N)=O)SC2=Nc2ccc(F)cc2)cc1OC (stereo not given) | 15 | -4 | 3 | -8 | i | -21 | 1 | -6
COc1ccc(C2C3=C(NCCN=C3c3ccccc3)C(=O)N2c2ccccc2)c(OC)c1 (stereo not given) | 8 | 2 | 6 | -7 | i | -3 | 0 | 11
Cc1cc(Br)c(OCc2ccc(C(=O)N/N=C/c3ccc[nH]3)cc2)c(Br)c1 | . | -3 | -33 | 98* | . | 91* | -31 | .
CC1=C(C(=O)Nc2ccc(C)cc2C)C(c2cccc(Cl)c2)n2nc(C(=O)OC(C)C)nc2N1 (stereo not given) | 0 | 1 | 0 | 2 | i | 0 | . | 7
Cc1ccc(-c2cc(-c3c(C)nn(C)c(=O)c3N)[nH]n2)cc1 | -4 | -2 | -8 | 13 | i | 0 | -7 | 12
CC(C)=CCc1c(O)cc2c(c1O)C(=O)CC(c1ccccc1)O2 (stereo not given) | . | -3 | -8 | -3 | i | . | -20 | .
O=C(O)CCN(Cc1ccccc1)S(=O)(=O)c1ccc(Cl)cc1F | 7 | -2 | -1 | -6 | i | -3 | . | -4
Cc1noc(C)c1C(=O)OCC(=O)Nc1ccccc1SCC#N | . | -25 | 7 | 1 | . | -10 | 1 | .
N=C1/C(=C\c2ccc(OC(=O)c3ccco3)cc2)C(=O)N=C2SC=NN12 | 10 | -10 | -12 | . | i | -367 | . | -3
COc1ccccc1C(CCNS(=O)(=O)c1ccc(C)cc1)c1ccco1 (stereo not given) | -4 | -2 | -9 | -5 | i | -5 | . | 10
COc1ccc(C(=O)NC2CCN(Cc3ccccc3)C2)cc1S(=O)(=O)N1CCOCC1 (stereo not given) | . | -2 | 6 | 1 | . | . | -13 | .
COc1ccc(CNC(=O)CN(Cc2ccccc2Cl)C(=O)c2csnn2)cc1 | -1 | 3 | 1 | -3 | i | 4 | -19 | 5
C=CCNC(=O)CSc1nnc(-c2cccs2)o1 | 6 | 4 | -4 | -3 | i | . | -6 | -4
O=C(Cn1cnc2ccccc2c1=O)NCC(=O)N1CCOCC1 | 2 | 3 | 2 | -7 | i | -11 | . | -1
CCOC(=O)CC(=O)CSc1nc(-c2cccnc2)cc(C)c1C#N | ? | -1 | 3 | 6 | i | . | 0 | ?
COc1cc2c(cc1OC)C(c1ccc(C)cc1)NC(=O)C2 (stereo not given) | -14 | 1 | 4 | -17 | i | 3 | -30 | 1
Cc1cc(C)c(S(=O)(=O)NCC23C=CC(O2)C2C(=O)N(c4ccccc4)C(=O)C23)c(C)c1 (stereo not given) | 0 | 12 | 0 | -17 | i | 25 | 8 | 15
Cc1noc(/C=C/N(C)C)c1S(=O)(=O)N1CCCC(C(=O)Nc2ccccc2F)C1 (stereo not given) | -7 | -8 | -9 | 12 | i | 10 | 11 | -4
O=C(NCCOc1ccccc1F)c1cccc(S(=O)(=O)N2CCN(c3ccccc3)CC2)c1 | . | 1 | -17 | 5 | i | 10 | -19 | .
O=C(CN(Cc1ccco1)C(=O)CCC(=O)Nc1ccccn1)NCc1ccccc1 | 0 | -6 | -4 | -16 | i | -13 | -18 | 15
O=C1c2ccccc2CN1C(CO)Cc1ccccc1 (stereo not given) | 8 | -1 | 3 | -2 | i | 10 | -13 | -1
COc1cccc(-c2csc(N3CCN(C(=S)Nc4ccccc4OC)CC3)n2)c1 | -11 | -7 | -2 | . | i | 9 | -22 | -14
OC(COc1ccc(CN2CCCCO2)cc1)CN1CCCCC1 (stereo not given) | -11 | -1 | 4 | 1 | i | 5 | -10 | -7
COc1ccccc1C(=O)C1CCCN(Cc2cccc(OCCO)c2)C1 (stereo not given) | -7 | -2 | 3 | -7 | i | -6 | -3 | 4
O=C(NNC(=O)c1ccccc1[N+](=O)[O-])c1ccccc1[N+](=O)[O-] | -4 | 1 | 1 | -6 | i | 2 | -20 | 0
COc1ccc(C2CC(c3ccccc3C)n3nc(N)nc3N2)cc1 (stereo not given) | -10 | 0 | 3 | 1 | i | -6 | -26 | -11
O=C(c1ccc(S(=O)(=O)Cc2ccccc2Cl)c([N+](=O)[O-])c1)N1CCOCC1 | -12 | 2 | -1 | 11 | i | 18 | 0 | -5
CN1CCN(c2oc(/C=C/c3ccccc3)nc2C#N)CC1 | 8 | 5 | 6 | 11 | i | -2 | . | 0
CCc1nc2ccc(C(=O)N3CCN(c4cccc(Cl)c4)CC3)cc2nc1CC | -2 | -4 | 0 | 36 | i | 5 | -6 | -1

Just PABP polyA inh (4 entries from above):
SMILES | PABP polyA inh
CC(CCc1ccccc1)NC(=O)CNC(=O)N1CC(=O)Nc2ccccc21 (stereo not given) | 10
N#C/C(=C\c1ccc(F)c(F)c1)C(=O)NC1CCCCC1 | -15
O=C(COC(=O)c1ccco1)Nc1nc2ccc([N+](=O)[O-])cc2s1 | 6
Cc1ccccc1CN1C(=O)c2ccccc2Sc2ccc(C(=O)NCCCN3CCOCC3)cc21 | -1

Random draw from the library (roughly 2.9% active in at least one column).
